# Assay outcomes deposited in PubChem BioAssay by National Center for Advancing Translational Sciences (NCATS).
# HPGD block – blocks human HPGD enzyme activity. P15428. purified HPGD, NADH fluorescence kinetic, PGE2 substrate. Potency, µM, for the others: top-dose activity change, negative = inhibition, hits mostly inhibitors. actives 4.3% (n = 150,000); active = well fitted inhibition curve with a large enough effect (not every such curve was filed as active); inconclusive = small, poorly fitted or top-dose-only effect, or another doubt; inactive = no such curve, though single readings can be large or run the other way;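 further: top concentration of the series not given in the record; plate controls included wells without enzyme; inactives centre near -10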
# Target sequence (P15428 whole entry, looked up): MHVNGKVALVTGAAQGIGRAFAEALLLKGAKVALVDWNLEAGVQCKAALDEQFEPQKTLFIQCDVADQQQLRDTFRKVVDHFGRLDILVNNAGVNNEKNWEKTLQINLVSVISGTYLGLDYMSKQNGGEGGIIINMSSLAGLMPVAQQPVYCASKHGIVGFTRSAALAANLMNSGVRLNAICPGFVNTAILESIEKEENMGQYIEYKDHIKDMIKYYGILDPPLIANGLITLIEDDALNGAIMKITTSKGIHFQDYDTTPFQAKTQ
#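 20 nM HPGD preincubated 15 min at room temperature with compound in 50 mM Tris-HCl pH 8, 0.01% Tween 20. Started with 1 mM NAD+ and 30 uM prostaglandin E2; NADH fluorescence (360/450 nm) read 5 times over 30-s intervals, last minus first.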
# * = called active by the depositor; u = inconclusive. On the % scale 0 is the no-effect control and ±100 the full control effect; potency means the concentration at half of the fitted maximal effect. Some of the compounds tested; the hit share may differ from the screen's.
SMILES,HPGD block
O=C(CCn1cnc2ccccc2c1=O)Nc1nc(-c2ccc(Br)cc2)cs1,-9.2%
Cc1nc2ccccc2c(=O)n1NC(=O)c1ccc(F)cc1Cl,-7.2%
CC1CCCN(C(=O)Cn2c(-c3nonc3N)nc3ccccc32)C1 (centres undefined),-10.2%
CS(=O)(=O)NCCSCc1c(Cl)cccc1Cl,-19.8%
CS(=O)(=O)c1cc([N+](=O)[O-])c(Sc2nc3ccccc3[nH]2)c([N+](=O)[O-])c1,3.55µM*
Cc1c([C@H]2[C@@H](CC#N)C2(C)C)c2ccccc2n1C,-6.3%
O=C(c1ccccc1)N1CCC(c2nc(-c3ccc(S(=O)(=O)NCC4CCCO4)cc3)no2)CC1 (centres undefined),-16.8%
Cc1nn(Cc2ccc(F)cc2)c(C)c1NC(=O)c1noc2c1CCCCC2,-5.1%
CC(=O)NC1=NC(=O)/C(=C/N2CCCCC2)S1,-7.3%
CCC(=O)NC(=S)NNC(=O)c1ccc(OC)cc1,-28.6%
Cn1cccc1C(=O)OCC(=O)Nc1cc(C(C)(C)C)nn1-c1ccccc1,-3.9%
CC1CC(C)CN(CC(O)COCCOc2ccc(Br)cc2)C1 (centres undefined),-4.9%
COC(=O)c1ccc(NC(=O)c2sc3nc(-c4ccccc4)cn3c2C)cc1,u
CCCCCCCCCCCCCCCCCC(=O)NCC(COP(=O)([O-])OCC[N+](C)(C)C)OCC (centres undefined),-14.0%
Cc1cc(C)c(C)c(S(=O)(=O)Nc2ccccc2C(=O)NCCCn2ccnc2)c1C,u
O=S(=O)([N-]c1nc2ccccc2nc1-[n+]1ccccc1)c1ccccc1,-4.9%
COc1ccccc1N1CCN(C(c2ccc(Cl)cc2)c2nnnn2C(C)(C)C)CC1 (centres undefined),-17.0%
CC(=S)c1c(C)cc2cc(C)ccn12,-16.3%
Oc1ccc(C=NCC2COc3ccccc3O2)cc1 (centres undefined),-9.1%
COc1cccc(C(=O)NCCOc2cc(C)cc(C)c2)c1,-9.5%
Cc1cc(C)c(NC(=O)C(C)c2cccc(C(=O)c3ccccc3)c2)c(C)c1 (centres undefined),-6.0%
Cn1c2ccccc2c(=O)c2c(=O)n(C3CCCCC3)c(-c3ccco3)nc21,-3.8%
Cn1cccc1Cc1nnc(SCC(=O)Nc2cccc(Cl)c2)n1-c1ccc(F)cc1,-8.7%
Cc1cc(C)n(C2CCCCC2OC(=O)c2ccccc2F)n1 (centres undefined),-6.6%
COc1cc(C2C3C(=O)N(Cc4ccccc4)C(=O)C3ON2c2ccccc2)cc(OC)c1OC (centres undefined),-17.8%

# Part of the list above, as labelled records.
Molecule: CCCCCCCCCCCCCCCCCC(=O)NCC(COP(=O)([O-])OCC[N+](C)(C)C)OCC (centres undefined)
  HPGD block = -14.0%
Molecule: Cc1cc(C)c(C)c(S(=O)(=O)Nc2ccccc2C(=O)NCCCn2ccnc2)c1C
  HPGD block = u
Molecule: O=S(=O)([N-]c1nc2ccccc2nc1-[n+]1ccccc1)c1ccccc1
  HPGD block = -4.9%
Molecule: COc1ccccc1N1CCN(C(c2ccc(Cl)cc2)c2nnnn2C(C)(C)C)CC1 (centres undefined)
  HPGD block = -17.0%

# Other structures follow:
SMILES,HPGD block
Cc1ccc(N(CC(=O)NCc2ccccc2Cl)S(=O)(=O)c2cccs2)cc1,-11.8%
COC(=O)c1c(NC(=O)c2ccco2)sc(C)c1C,-27.8%
CCOC(=O)CSc1ncc(OC)c(Sc2ccc(Cl)cc2)n1,-16.9%
COc1cccc(CNC(=O)CCl)c1,-21.6%
Cc1ccccc1OCC(=O)N1N=C(C(F)(F)F)CC1(O)C(C)(C)C (centres undefined),-10.6%
Cc1ccc(S(=O)(=O)NNc2ccccc2)cc1,5.01µM*
CCN(CC)S(=O)(=O)c1cccc(C(=O)N[C@H](C(=O)O)C(C)C)c1,-18.1%
O=c1ncn(-c2cccc(F)c2)c2ncccc12,-15.7%
Cc1ccc(S(=O)(=O)NC(=O)c2ccc(-c3ccc(-c4ccccc4)cc3)o2)c(C)c1,u
O=C(O)c1cc2c([nH]c1=O)CCCC2,u
Cc1nnc(C)n1/N=C/c1cccnc1,0.2%
O=C(CSc1nnc(CN2CCOCC2)n1-c1ccccc1)Nc1ccc(Cl)cc1,-10.4%
Cc1nnc(-c2cccc(Br)c2)c2cn(-c3ccccc3Cl)nc12,-23.5%
CC(O)CCc1nc2ccc(C(=O)O)cc2[nH]1 (centres undefined),-9.9%
Cc1ccc(S(=O)(=O)N2CCCC(C(=O)O)C2)s1 (centres undefined),-17.7%
CC1CCc2nc(NC(=O)C3CCCO3)sc2C1 (centres undefined),-20.7%
CC(C)CO,-7.7%
COc1ccc2c(c1)CC/C(=C\C=C\c1ccccc1OC)C2=O,u
O=C(c1c[nH]c2ccc(S(=O)(=O)N3CCOCC3)cc2c1=O)N1CCN(c2ccccn2)CC1,u
Cc1ccc(SCC(=O)O/N=C(\N)c2cccc([N+](=O)[O-])c2)cc1,-13.8%
Cc1ccc(NC(=O)NC(=O)N(C(C)C)S(C)(=O)=O)nc1,u
CCCCCn1c(CN2CCN(Cc3ccccc3)CC2)nc2c1c(=O)n(C)c(=O)n2C,-7.0%
CCCn1c(C(C)NC(C)=O)nc2ccccc21 (centres undefined),-8.5%
O=C(NCCc1csc(-c2ccccc2)n1)c1ccc(Br)o1,u
Cc1cc(-c2[nH]nc3c2C(c2cccc(O)c2)C(C#N)=C(N)O3)c(C)s1 (centres undefined),-17.9%

# (continued)
SMILES,HPGD block
CSc1ccccc1C(=O)N1CCOCC1,1.7%
CN(C)c1ccc(NC(=O)CN2CCC(N3CCCCC3)CC2)cc1,-5.8%
COc1ccc(S(=O)(=O)N2CCC(C(=O)N3CCOCC3)CC2)cc1,-7.2%
CC(C)CC(=O)NCc1ccc(F)cc1,15.8µM*
CCCN(CCC)CCNS(=O)(=O)c1ccc2c(c1)CCN2C(=O)C1CCC1,-3.9%
CC(Sc1ccccc1)C(=O)Nc1ccc(S(=O)(=O)N2CCOCC2)cc1 (centres undefined),-9.1%
CC(C)[C@H](NC(=O)Nc1ccccc1F)C(=O)O,-12.1%
Cc1cccc(/C=C2\Oc3cc(OS(C)(=O)=O)ccc3C2=O)c1,-13.1%
Cc1c(NC(=O)CSc2ccccc2C(=O)Nc2cccnc2)c(=O)n(-c2ccccc2)n1C,-0.6%
CCC(=O)Nc1cc(-c2nn(C)c(=O)c3ccccc23)ccc1N1CCCCC1,-14.3%
Cn1c(N)c(C(=O)c2ccc(C#N)cc2)c(=O)n(C)c1=O,-6.0%
CC(=O)Nc1ccc(S(=O)(=O)NCC(=O)OCC(=O)c2cc(C)n(-c3ccc4c(c3)OCO4)c2C)cc1,-3.9%
Cc1ccn2cc(-c3ccc(S(=O)(=O)N4CCOCC4)cc3)nc2c1,u
COCC(=O)NCCSc1c(C)[nH]c2ccccc12,u
CN1CCN(C(c2cccc(C(F)(F)F)c2)c2nnnn2Cc2ccccc2)CC1 (centres undefined),-3.4%
COc1ccc(CNC2CCCC2)c(OC)c1OC,-13.4%
CC(C)CC(=O)NC(=S)NNC(=O)c1ccc(NC(=O)C2CCCCC2)cc1,-17.2%
CCOC(=O)C1=C(C)NC(C)=C(C(=O)OCC)C1c1cc2ccc(C)cc2[nH]c1=O,-11.8%
CC1CCC2(CC1)NC(=O)N(CC(=O)NCc1cccs1)C2=O (centres undefined),-4.1%
Cc1cccc(NC(=O)C(NS(=O)(=O)c2ccc3c(c2)CCC(=O)N3)c2ccccc2)n1 (centres undefined),-16.4%
CCc1ccc(/C=C/C(=O)c2ccc(N3CCOCC3)cc2)cc1,-14.6%
COc1cc(-c2nc(-c3ccccc3)c(-c3cccs3)[nH]2)cc(OC)c1O,u
Cc1ccc(NC(=O)CN(c2ccc(Cl)cc2)S(=O)(=O)c2cc([N+](=O)[O-])ccc2Cl)cc1,-8.6%
COc1cccc(C2C(C#N)=C(N)OC(C(C)(C)C)=C2C#N)c1 (centres undefined),-15.2%
CC1CN(C2CCN(C(=O)COc3ccccc3)CC2)CC(C)O1 (centres undefined),-8.9%

# (list continues)
SMILES,HPGD block
CCCCC(=O)Nc1ccc(NC(=S)NC(=O)CC)cc1OC,u
CC(C)C(NC(=O)c1ccc2c(c1)OCO2)C(=O)N/N=C\c1ccco1 (centres undefined),-15.8%
CCN(CC)S(=O)(=O)c1cccc(-c2nnc(SCC(=O)NC3CCCCCCC3)n2N)c1,5.8%
O=C(c1ccc(Cl)cc1)C(Cn1cncn1)C(Sc1ccccc1)c1ccccc1 (centres undefined),-12.4%
Cc1cc(C(=O)NNC(=S)NCC2CCCO2)cs1 (centres undefined),-8.2%
CCCC(C)c1nnc(NC(=O)C2CCCO2)s1 (centres undefined),11.2µM*
Cc1ccc(S(=O)(=O)c2c(N)n(C)c3nc4ccccc4nc23)cc1,u
C=C[C@](C)(O)CCC1C(=C)CC(OC(C)=O)C2C(C)(C)CCCC12C (some centres undefined),-24.4%
O=C(Nc1cccc2nsnc12)c1cccnc1Cl,u
Cc1cccc(N2CCN(C(=O)CCCn3c(=S)[nH]c4cc5c(cc4c3=O)OCO5)CC2)c1C,-19.8%
Cc1nn(C(C)(C)C)c(OC(=O)c2cccs2)c1Sc1ccccc1,-3.8%
CC(C)C[C@H](NC(=O)Nc1cccc(Br)c1)C(=O)O,-15.8%
CS(=O)(=O)c1nc(-c2ccccc2)cc(C(F)(F)F)n1,u
COc1ccc(C2CC(=O)N3C(=C2C#N)SCC3(O)c2ccccc2)cc1 (centres undefined),-18.8%
CC1=NN(C(=O)Cc2ccc([N+](=O)[O-])cc2)C(O)(c2cccnc2)C1 (centres undefined),-11.6%
CCOC(=O)c1ccc(CNC(=O)c2cc(C(C)(C)C)oc2C)o1,-5.9%
CCOC(=O)c1sc(NS(=O)(=O)c2ccccc2Cl)nc1C,-5.3%
COCC(=O)Nc1nnc(COc2ccccc2)s1,-10.2%
O=C(CN1C2=NCCN2c2ccccc21)c1ccco1,1.0%
CCN(CC)c1ccc(NC(=O)Nc2ccc(C(C)=O)cc2)cc1,-4.6%
CC(C)(C)Cc1nnc(NC(=O)Cc2ccc([N+](=O)[O-])cc2)s1,14.1µM*
CC1CCCN(C(=S)NCCc2ccccc2)C1 (centres undefined),-16.6%
C1CCC(NC2=NCCC2)CC1,-2.7%
C=CCOC(=O)C(C#N)c1nc2ccccc2nc1N1CCN(c2ccccc2OCC)CC1 (centres undefined),-6.6%
Cc1cc(NCc2ccccn2)nc2ccccc12,-24.2%

# The final 3 entries of the section above are carried over, then new ones follow:
SMILES,HPGD block
C1CCC(NC2=NCCC2)CC1,-2.7%
C=CCOC(=O)C(C#N)c1nc2ccccc2nc1N1CCN(c2ccccc2OCC)CC1 (centres undefined),-6.6%
Cc1cc(NCc2ccccn2)nc2ccccc12,-24.2%
CC1CN(S(=O)(=O)c2ccc(C(=O)Nc3sc4c(c3C(N)=O)CCN(C)C4)cc2)CC(C)O1 (centres undefined),-20.4%
CCN1CCCC1CN(Cc1cc2cc(OC)ccc2[nH]c1=O)C(=O)NCc1ccccc1 (centres undefined),-23.3%
Cc1nc2cnc(N(C)C)nc2n(Cc2ccc(F)cc2)c1=O,u
Cc1ccccc1-n1c(=O)c2c(n3cnnc13)-c1ccccc1CC21CCCCC1,-7.3%
CN(Cc1ccccc1)c1nc2c(c(=O)[nH]c(=O)n2C)n1CCCSc1ncccn1,-24.4%
CSCC[C@H](NC(=O)OC(C)(C)C)c1nnc(SCc2ccccc2)o1,-14.9%
Cc1ncc([N+](=O)[O-])n1CCOC(=O)NC(NCc1ccccc1Cl)C(Cl)(Cl)Cl (centres undefined),-11.8%
O=C(c1cccs1)c1coc2ccc(O)c(CN3CCOCC3)c12,-2.9%
N#Cc1ccccc1NC(=O)Nc1ccc(Cl)cc1,-14.3%
O=C(O)c1cccc(S(=O)(=O)NCCO)c1,-3.9%
C=C(C(=O)O)[C@@H]1CC[C@@]2(C)CCC[C@](C)(O)[C@@H]2C1,-3.0%
O=C1c2ccccc2C(O)(O)[C@@]1(O)[C@]1(O)C(=O)c2ccccc2C1(O)O,0.7%
COCCn1nc2cc(C(=O)NCC34CC5CC(CC(C5)C3)C4)ccc2c1OC,u
Cc1cc(C)c(OCC(=O)OCCNC(=O)c2cccnc2)c(C)c1,-22.6%
CC(=O)c1cnc2c(-c3ccccc3)c(C)nn2c1C,-9.7%
Cc1ccc(S(=O)(=O)NC(=O)CSc2nc3ccccc3s2)cc1,-12.3%
COc1ccc(C2NC(=S)NC(C)=C2C(=O)c2ccccc2)cc1OC (centres undefined),-13.2%
Cc1ccc(S(=O)(=O)CCc2nnc(NC(=O)COc3cccc(C)c3)s2)cc1,-3.5%
COc1ccc(-c2nc(CC(=O)O)cs2)cc1,u
Cc1cccc(C(=O)N[C@H](C(=O)OCC(=O)NC2CCS(=O)(=O)C2)C(C)C)c1 (some centres undefined),-8.8%
COC(=O)c1cc(OC)c(OC)cc1NC(=O)CSc1ccc(C)cc1,u
CC(=C1C(=O)c2ccccc2C1=O)N1CCc2ccccc2C1,-12.8%
Cn1cnnc1SCC(=O)c1cccc([N+](=O)[O-])c1,-12.8%
O=C(/C=C/c1ccc(Cl)cc1)N1CCN(c2ccccn2)CC1,-7.9%
CC(C)(C)NCC(O)COc1c(F)cc(Br)cc1F (centres undefined),0.6%
CCOc1ccc(NC(=O)CSc2nc(-c3cccs3)cc(C(F)(F)F)n2)c([N+](=O)[O-])c1,-7.5%
O=C(c1cccc(S(=O)(=O)N2CCc3ccccc3C2)c1)N1CCN(c2ccccc2)CC1,-13.2%
CCOc1ccc(CCNC(=O)C2CCN(S(=O)(=O)N3CCOCC3)CC2)cc1OCC,-3.6%
